# Source: PubChem
# NPYLR7 ag = activates Aedes aegypti NPYLR7 receptor. activation, % at 10 µM. HEK293T NPYLR7/Galpha15, GCaMP6s calcium fluorescence. AID 1259423. 270,000 tested, 0.15% active; in the data active = activation above about 40%;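 note: 0% = vehicle and 100% = reference agonist at the receptor; some compounds past the cut are filed as inactive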
# NPYLR7 ag max-min = recorded beside NPYLR7 ag, whose call it bears; activation, %; measured here: Max-Min RFU normalised activation; some inactives read as strong as hits;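 span of the calcium signal over five minutes; 0% = vehicle and 100% = native peptide agonist; compound fluorescence can raise it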
# * marks the source's active call; other numbers are inactive results; & = joins results of further samples.
# Sample of the layout:
SMILES,NPYLR7 ag,NPYLR7 ag max-min
O=C1OC(c2ccccc2)=C2CCCCC12 (stereo not given),-1,-4
COc1ccc(-c2cc(C(=O)NCC(C)C)c3ccccc3n2)cc1,-7,-10
CCc1nc2n(n1)C(=O)C(C(c1ccc(Br)cc1)N1CCC3(CC1)OCCO3)S2 (stereo not given),-4,-6

# The listing, previewed entries included:
SMILES,NPYLR7 ag,NPYLR7 ag max-min
O=C1OC(c2ccccc2)=C2CCCCC12 (stereo not given),-1,-4
COc1ccc(-c2cc(C(=O)NCC(C)C)c3ccccc3n2)cc1,-7,-10
CCc1nc2n(n1)C(=O)C(C(c1ccc(Br)cc1)N1CCC3(CC1)OCCO3)S2 (stereo not given),-4,-6
COc1cc(CNC2CCCCC2C(C)(C)C)cc(OC)c1OC (stereo not given),6,1
CCN1CCN(C(=O)CCN(CCc2ccccc2)c2nc(C3CC3)nc3ccccc23)CC1,6,11
O=C(Nc1nn2c(-c3ccco3)nnc2s1)c1ccco1,0,-3
O=C(Nc1c(-c2cccc(F)c2)nc2ccccn12)C(Cl)c1ccccc1 (stereo not given),-5,0
CCOC(=O)c1c(NC(=O)c2ccco2)sc(C(=O)Nc2ccc(OC)cc2)c1C,9,12
Cc1ccc(NC(=O)C(C)OC(=O)c2cccc(C)c2C)cc1 (stereo not given),1,-1
CSc1ccc(C(NS(=O)(=O)c2ccccc2C(F)(F)F)c2cccc(Cl)c2Cl)cc1 (stereo not given),-4,-10
COc1ccc(-c2csc3nc(CN(Cc4ccco4)CC(O)CN4CCOCC4)[nH]c(=O)c23)cc1 (stereo not given),-2,-1
CC(=O)Nc1ccc(NC(=O)[C@@H](C)N2Cc3ccc(NCC(C)C)nc3C2=O)cc1,2,-2
O=C(c1ccc(F)c(F)c1)N1CCC(c2nc(-c3ccc(Cl)cc3F)no2)CC1,3,0
COc1cccc([C@@H]2CCN(C3CCN(S(C)(=O)=O)CC3)C[C@H]2O)c1,-2,-2
CCC(C)Nc1cc(C(C)C)nc2c(-c3ccccc3)cnn12 (stereo not given),-1,-4
O=c1c2ccccc2oc2nc(C3CCCCC3)n(Cc3ccccc3)c(=O)c12,5,2
CCCc1nnnn1CC(=O)NCc1cccc(C)c1,4,1
O=C(CCCl)Nc1c(C(=O)Nc2ccc(Cl)cc2)oc2ccccc12,-4,-4
Cc1ccc(S(=O)(=O)N2CCN(C(=O)CCCc3cccs3)CC2)c(C)c1,4,0
CC(CNc1nsc(Nc2ccc(Cl)cc2)n1)=NCCCCO,-1,0
Cc1cc(N2C(=O)CSC2c2ccc(Br)s2)no1 (stereo not given),5,5
COc1cc2nc(-c3cccc4c3OCO4)[nH]c(=O)c2cc1OC,-19,-21
CCc1nn(CCCN2CCN(c3cccc(Cl)c3)CC2)c(=O)n1CCOc1ccccc1,-12&-8,-19&8
C/C(=C\c1ccccc1)CN1CCC(Oc2cccc(C(=O)N3CCCC3)c2)CC1,2,1
COc1ccc(-c2ccc3c(c2)COCC(=O)N3CC2CC2)cn1,6,4
# More entries:
SMILES,NPYLR7 ag,NPYLR7 ag max-min
CCN(CC)c1ccc(C2NC(=O)NC(C)=C2C(=O)OCCOc2ccccc2)cc1 (stereo not given),0,-2
CC1=C(C(=O)OC(C)C)C(c2ccsc2)C2=C(CCCC2=O)N1 (stereo not given),-6,-13
Cc1ccc(Nc2nc(NCCOCCO)nc(N)c2[N+](=O)[O-])cc1,0,0
COc1ccc(C)c2sc(N3CCN(c4nc5c(OC)ccc(C)c5s4)CC3)nc12,8,3
CC1CCc2c(sc(NC(=O)C(C)(C)C)c2C(=O)Nc2ccc(Cl)cc2)C1 (stereo not given),2,0
CCn1c(C)cc(C(=O)CSc2nnnn2C2CCCC2)c1C,8,7
COc1ccc2c(c1)C1(SC(C)(C)CN1C(=O)NC1CCCCC1)C(=O)N2 (stereo not given),4,9
COCCCNc1nccc2[nH]c(-c3cccc(OC)c3F)nc12,-6,-12
Cc1nccnc1-n1cc(CCO)cn1,19,4
CC1CCc2c(sc3ncnc(N4CCCCCC4)c23)C1 (stereo not given),9,9
O=C(c1ccc(F)cc1F)N1CCN(C(c2ccccc2)c2ccc(F)cc2)CC1 (stereo not given),-3,7
CCOC(=O)C1(Cc2ccc(Cl)cc2)CCN(C(=O)c2ccoc2)CC1,19,10
CCCSc1ncccc1C(=O)N1CCC(c2c[nH]c3ccc(C)cc23)CC1,0,-1
O=C(CCN1Cc2ccccc2OC(c2ccccc2)C1)NCC1(N2CCOCC2)CCCC1 (stereo not given),1,-1
Cc1ccccc1N1CCN(C2CCCN(C(=O)c3ccc(Br)cc3)C2)CC1 (stereo not given),9,22
CC1CCC2(CC1)NC(=O)N(CC(=O)NCC(C)c1ccccc1)C2=O (stereo not given),3,1
O=C(CSc1nc(=O)n(CC2CCCO2)c2c1CCCC2)Nc1ccc([N+](=O)[O-])cc1 (stereo not given),-3,-6
CCOc1ccccc1NC(C)c1ccc(F)cc1 (stereo not given),-5,-3
CCn1ccnc1CN1CCN(c2nc(-c3ccccc3)nc3c2CCC3)CC1,0,-3
CCN1CCN(C(=O)c2cn3c(n2)CCC(c2ccccc2C)C3)CC1 (stereo not given),7,7
Cc1ccc(SCc2cc(=O)n(-c3nc4ccccc4[nH]3)[nH]2)cc1,-12,-19
O=S(=O)(NCc1cn2ccccc2n1)c1ccccc1F,5,5
Oc1ccc(CC2COCC(Cc3ccc(O)cc3)C2)cc1 (stereo not given),8,4
CCOC1=NN(c2ccc([N+](=O)[O-])cc2)C(=O)/C1=C/c1cc(OC)ccc1O,2,7
O=C(NCCc1ccccc1)C1Cc2c(-c3ccc(Cl)cc3)ccnc2O1 (stereo not given),13,12

# Two entries picked at random from those above:
SMILES,NPYLR7 ag,NPYLR7 ag max-min
O=C(CSc1nc(=O)n(CC2CCCO2)c2c1CCCC2)Nc1ccc([N+](=O)[O-])cc1 (stereo not given),-3,-6
CCn1ccnc1CN1CCN(c2nc(-c3ccccc3)nc3c2CCC3)CC1,0,-3

# Continued:
SMILES,NPYLR7 ag,NPYLR7 ag max-min
COc1ccc(NC(=O)CSCCOc2ccc(OC)cc2)cc1,5,2
CCOC(=O)N1CCC(Nc2nc3ccccc3o2)CC1,5,4
Clc1ccccc1-c1nnc2sc(-c3cccnc3)nn12,-1,-7
COCCCNC(=O)c1cc(-c2ccc(Cl)cc2)n(-c2ccc(F)cc2)c1C,1,5
O=S(=O)(CCc1ccccn1)Oc1cccc(OS(=O)(=O)CCc2ccccn2)c1,1,2
CCCC(=O)OCC(O)CN(Cc1ccc(F)cc1)Cc1ccc(OC)c(OC)c1 (stereo not given),-2,12
COc1ccc(C(NC(=O)C2CCN(Cc3ccc(Oc4ccccc4)cc3)CC2)c2ccccn2)cc1 (stereo not given),19,9
CCC(C)CNc1nnn(CC)n1 (stereo not given),-2,-5
C=CCN1N=C(C)Cn2c1nc1c2c(=O)n(CCC(C)C)c(=O)n1C,8,11
Cc1nc2sccn2c(=O)c1NC(=O)c1ccc(C(F)(F)F)cc1,15,10
CCCCNC(=O)c1ccc2nc(CC)c(N(CC)CCOC)n2c1,-6,-6
Cc1ccc(CC(=O)NCC(C)N2CCN(C)CC2)cc1 (stereo not given),3,2
CCCCNC(=O)c1nn(-c2ccccc2C)c(=O)cc1OC,3,4
Nc1nc(CSc2nnnn2C2CC2)nc(Nc2ccc(F)cc2)n1,0,2
Cc1cccc(C(=O)Nn2cnc3c(cnn3C(C)(C)C)c2=O)c1,3,1
CCOC(=O)c1cc(-c2ccc(F)cc2)n(C2CCN(S(=O)(=O)c3cc(F)ccc3C)CC2)n1,18,7
CCn1c(=O)n(CC(=O)NC2CCCC(C)C2)c2ccccc21 (stereo not given),1,0
CC(C)C(C)N(CCS(=O)(=O)c1ccc(Cl)cc1)C1CC1 (stereo not given),2,0
COc1ccc2sc(N(CCCN(C)C)C(=O)c3ccc(Br)s3)nc2c1,1,0
O=C(NCCc1ccccc1)c1cn(CC2CCCO2)cc2c(=O)n(-c3ccccc3)nc1-2 (stereo not given),4,2
CCCCn1c(=S)[nH]c2cc(S(=O)(=O)N(CC)CC)ccc21,-5&-1,-8&-2
O=C(CCN1C(=O)NC2(CCCC2)C1=O)Nc1nc(-c2ccc(Cl)s2)cs1,3,0
O=C(CCC1CCN(C(=O)c2cccnc2)CC1)NC1CCN(Cc2ccccc2)C1 (stereo not given),3,3
Cc1ccc(C(=O)N2CCCC3(CCNCC3)CC2)cc1Cl,4,3
O=C(Nc1cccc2c1C(=O)c1ccccc1C2=O)c1cc([N+](=O)[O-])ccc1Cl,-3,-8

# Of the compounds above, these have two or more sulfur atoms.
SMILES,NPYLR7 ag,NPYLR7 ag max-min
CSc1ccc(C(NS(=O)(=O)c2ccccc2C(F)(F)F)c2cccc(Cl)c2Cl)cc1 (stereo not given),-4,-10
Cc1ccc(S(=O)(=O)N2CCN(C(=O)CCCc3cccs3)CC2)c(C)c1,4,0
Cc1cc(N2C(=O)CSC2c2ccc(Br)s2)no1 (stereo not given),5,5
COc1ccc(C)c2sc(N3CCN(c4nc5c(OC)ccc(C)c5s4)CC3)nc12,8,3
O=S(=O)(CCc1ccccn1)Oc1cccc(OS(=O)(=O)CCc2ccccn2)c1,1,2
COc1ccc2sc(N(CCCN(C)C)C(=O)c3ccc(Br)s3)nc2c1,1,0
CCCCn1c(=S)[nH]c2cc(S(=O)(=O)N(CC)CC)ccc21,-5&-1,-8&-2
O=C(CCN1C(=O)NC2(CCCC2)C1=O)Nc1nc(-c2ccc(Cl)s2)cs1,3,0

# New compounds follow.
SMILES,NPYLR7 ag,NPYLR7 ag max-min
COc1cccc(NC2CCN(C(=O)c3ccc(F)c(F)c3)CC2)c1,0,-1
Cc1n[nH]c(C)n1,-1,-3
O=S1(=O)CCC(n2nc(-c3ccco3)cc2NS(=O)(=O)c2ccc(Cl)cc2)C1 (stereo not given),-1,-2
CSCCCNC(=O)CC1C(=O)NCCN1Cc1cccc(C(F)(F)F)c1 (stereo not given),-1,-4
CC(NC(=O)CCn1cncn1)c1cccc(Br)c1 (stereo not given),17&-2,13&-1
CC(=O)N1CCN(C(=O)c2cc(-c3ccc(Cl)cc3)nc3ccccc23)CC1,10,14
COc1cccc(N2CCC(N3[C@@H]4CC[C@H]3CNC(=O)C4)CC2)c1,5,1
CCCCCCCOc1ccc(NC(=O)N2CC(=O)N3CCc4c(F)cccc4C3C2)cc1 (stereo not given),1,-6
CCCn1ncc(CN2CCCC(C(=O)c3ccc4cc(OC)ccc4c3)C2)c1C (stereo not given),0,-1
O=C(NCc1ccncc1)C1COC2(CCN(C(=O)c3ccc(Cl)cc3)CC2)N1C(=O)c1ccc(F)cc1 (stereo not given),1,9
COc1ccccc1C(=O)OCCN(C1=NS(=O)(=O)c2ccccc21)c1ccccc1Cl,9,5
CN1CCCC[C@]2(C[C@H](CO)[C@H](c3ccccc3)N2C(=O)CC2CCCC2)C1=O,4,13
COCCCNc1nc(Nc2ccc3c(c2)OCO3)c2cnn(-c3ccccc3)c2n1,3,0
COc1ccc(-c2cnnc(NCCCCCN3CCOCC3)n2)cc1,-4,-7
Cc1ccc2nc(SC(C(=O)N(C)C)c3ccccc3)[nH]c2c1 (stereo not given),3,1
COc1ccc(CCN(C)Cc2ccc(C(=O)N3C4CCC3CC(Oc3cccc(C(F)(F)F)c3)C4)cc2)cc1OC (stereo not given),-4,-6
O=C(NC1CCN(c2ccc(F)cc2F)C1)c1cccnc1Cl (stereo not given),7,3
CCc1cc(CN(C)C(=O)c2cn3c4c(cccc4c2=O)CC3)on1,0,-1
CN(C)C(=O)Nc1ccc(C2SCC(=O)N2c2ccc(F)cc2)cc1 (stereo not given),-5,4
O=C(c1ccc2c(c1)COC2)N(Cc1ccccc1)c1ccccn1,-9,-10
Cc1nc(SCC(=O)NC(C)(C#N)C2CC2)c2c(C)c(C)sc2n1 (stereo not given),0,-4
Cn1ccc2c(C(=O)NS(=O)(=O)N3CCCC3)cccc21,-24,-24
OCc1cc(Br)ccc1O,3,5
CC1=NN(c2ccc(C(=O)NC3(c4ccc(F)cc4)CCC3)cc2)CC1,6,3
Cc1ccc(NC(=O)N(Cc2csc(COc3ccc(Cl)cc3)n2)C2CC2)cc1,-7,-7
# (list continues)
SMILES,NPYLR7 ag,NPYLR7 ag max-min
O=C(CC1C(=O)NCCN1Cc1ccc(F)cc1)NC1(CO)CCCC1 (stereo not given),5,2
CC1(C(=O)NS(=O)(=O)c2ccccc2Cl)CCN1C(=O)CCC1CCCC1 (stereo not given),2,1
Cc1cccc(NC(=O)CN(C)C(=O)C2CCCC2)c1C,-8,-6
CCOc1nc(-c2ccc(C)cc2)n(-c2ccc(NC(C)=O)cc2)n1,-7,-7
O=C(CSc1nc2ccccc2o1)CSc1nc2ccccc2o1,-6,-4
Cc1csc2nc(CSc3nnc(NC4CC4)s3)cc(=O)n12,1,2
Nc1ncc(-c2ccccc2)c(-c2ccc(OCc3ccc(F)cc3)cc2O)n1,3,0
COc1cc(-c2nc3cc(C)ccn3c2NC(C)(C)CC(C)(C)C)ccc1OC(=O)c1cccc(Br)c1,2,8
CC(C)(C)c1nnc2n1N=C(c1ccc(Br)s1)CS2,2,0
COc1ccc(CCN2CCC(CN(C)Cc3cnn(C(C)C)c3)CC2)cc1,10,0

# A portion of the library (hit frequency here may not be typical).
